Compound activity (PubChem BioAssay)
D2 potentiator: Beta-Arrestin HTS for Positive Allosteric Modulators of the Human D2 Dopamine Receptor: Potentiators | actives 0.23% (n = 360,000) | DiscoveRx D2 beta-arrestin cells, luminescence, 90 min; 100% = 57 uM dopamine signal | potentiation, % (no concentration beside the values) | AID 624464, 2012; active = potentiation of 50% or more; inconclusive = 30% to 50%; inactive = 30% or less;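 note: compound concentration not given in the record; tested on top of an EC20 dose of dopamine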
Target sequence (P14416 whole entry, looked up): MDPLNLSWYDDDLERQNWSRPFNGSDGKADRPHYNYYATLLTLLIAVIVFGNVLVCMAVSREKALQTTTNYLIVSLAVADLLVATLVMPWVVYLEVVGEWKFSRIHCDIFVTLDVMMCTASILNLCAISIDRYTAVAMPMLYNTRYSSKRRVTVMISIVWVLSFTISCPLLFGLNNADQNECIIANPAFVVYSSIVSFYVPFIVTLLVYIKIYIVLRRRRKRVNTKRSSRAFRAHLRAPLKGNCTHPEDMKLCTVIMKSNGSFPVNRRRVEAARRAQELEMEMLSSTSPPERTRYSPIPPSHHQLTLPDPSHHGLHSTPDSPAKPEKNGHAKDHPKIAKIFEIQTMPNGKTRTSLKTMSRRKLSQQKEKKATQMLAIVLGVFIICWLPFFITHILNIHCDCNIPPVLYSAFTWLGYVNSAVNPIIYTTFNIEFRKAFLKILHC
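PathHunter beta-arrestin assay in DiscoveRx D2 cells. Compounds were added with an EC20 of dopamine (50 nM final) for 90 min at 37 deg C. Luminescence was read 1 h after detection reagent, with 57 uM dopamine as the EC100 control.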
PINK1 expr mod: A Quantitative High throughput Screen to Identify Chemical Modulators of PINK1 Expression; PINK1 immunofluorescence, high-content cytometry, 24 h; Potency, µM (series often up to 76.6 µM), inactives show top-dose activation (PINK1 increase), actives largely listed as activators; actives 0.2% (n = 410,000); AID 624263, 2012; active = well fitted activation curve with a large enough effect; inconclusive = small, poorly fitted or top-dose-only effect; inactive = flat fitted curve, though single readings scatter; cell line not stated here;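 note: potency is the fitted concentration of half-maximal effect; % of control where 0% means no effect; nearly all actives have a fitted effect of over 65% in size; a mitochondrial uncoupler was the plate control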
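Stable cell line, 250 cells/well, 12 h attachment; compounds pinned at 5 concentrations, 24 h; CCCP control. Fixed with nuclear dye, primary antibodies 12 h at 10 degrees C, secondary plus cell stain; laser-scanning cytometer read.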
D2 agonist: Beta-Arrestin HTS for Positive Allosteric Modulators of the Human D2 Dopamine Receptor: Agonists. D(2) dopamine receptor (Homo sapiens), P14416. DiscoveRx PathHunter D2 beta-arrestin, luminescence, 90 min; 100% = 57 uM dopamine signal. activation, % (concentration not given with the values). actives 0.084% (n = 360,000). AID 624465, 2012; in the data active = activation above about 40%; inconclusive = about 15% to 40%; inactive = below about 15%; note: compound concentration not given in the record; the text of the record calls up to 30% inactive
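Agonist mode: compounds alone added to overnight-plated D2 PathHunter cells for 90 min at 37 C, with 57 uM final dopamine (EC100) defining full response. Beta-arrestin recruitment detected by chemiluminescent reagent, read after 1 h at ambient temperature.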
TRPML1 blocker: qHTS for Inhibitors of the Human Mucolipin Transient Receptor Potential 1 (TRPML1). TRPML1-inducible cells, Ca2+ dye fluorescence, FDSS; hits give low values; inhibition of EC80 agonist-evoked calcium signal. Mucolipin-1 (Homo sapiens), Q9GZU1. actives 0.02% (n = 390,000). activity change, negative = inhibition, % (no concentration beside the values); in the data active means activity change below about -50%; inconclusive means about -30% to -50%; inactive means above about -30%;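 note: stimulus is agonist 54-4 at its EC80 concentration; % is set by controls: 0 for no effect and ±100 for the full control effect; compound concentration not given in the record; the text of the record puts the active cut at -80%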
Target sequence (Q9GZU1 whole entry, looked up): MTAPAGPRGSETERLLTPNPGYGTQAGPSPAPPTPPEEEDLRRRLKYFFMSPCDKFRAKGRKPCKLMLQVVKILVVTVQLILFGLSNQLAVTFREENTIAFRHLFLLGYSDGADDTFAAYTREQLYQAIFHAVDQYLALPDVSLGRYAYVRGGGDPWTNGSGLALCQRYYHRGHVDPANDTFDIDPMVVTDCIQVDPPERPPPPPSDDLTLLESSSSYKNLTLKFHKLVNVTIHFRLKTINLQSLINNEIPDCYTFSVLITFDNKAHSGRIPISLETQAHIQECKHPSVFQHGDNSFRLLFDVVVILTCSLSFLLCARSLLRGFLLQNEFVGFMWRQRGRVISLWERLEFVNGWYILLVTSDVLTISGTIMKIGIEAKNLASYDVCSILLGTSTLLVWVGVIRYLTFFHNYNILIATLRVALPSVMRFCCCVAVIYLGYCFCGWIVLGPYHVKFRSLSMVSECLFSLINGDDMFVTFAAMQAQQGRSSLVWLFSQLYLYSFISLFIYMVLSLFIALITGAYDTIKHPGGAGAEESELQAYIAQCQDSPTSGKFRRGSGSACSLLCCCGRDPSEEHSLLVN
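TRPML1-DL cells, Tet-induced overnight (~16 h, 37 °C) at 1,500 cells/well, were loaded with Ca8 no-wash dye plus quencher for 45-90 min at room temperature. Compounds were pinned during FDSS kinetic reading; agonist 54-4 at EC80 (4 uM final) then added.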
Six1-Eya2 inh: qHTS Assay for Inhibitors of the Six1/Eya2 Interaction. actives 0.56% (n = 360,000). activity change, % (concentration not given with the values). AID 651725, 2012. AlphaScreen GST-Six1/His-Eya2 binding, biochemical; hits give low values; control for the full effect not named in the record. Homeobox protein SIX1 (Homo sapiens) + Protein phosphatase EYA2 (Homo sapiens), …; in the data active = activity change below about -65%; inconclusive = about -30% to -65%; inactive = above about -30%; note: % is set by controls: 0 for no effect and ±100 for the full control effect
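GST-Six1 + His-Eya2 (5X stock: 250/500 nM); Tris pH 8.0, 300 mM NaCl, 0.05% BSA, 0.02% Tween 20; GSH donor/Ni acceptor beads; 1 h 37 °C dark; AlphaScreen readout.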
TRPML1 agonist: qHTS for Agonists of the Human Mucolipin Transient Receptor Potential 1 (TRPML1); activation, % (no concentration beside the values); Mucolipin-1 (Homo sapiens), Q9GZU1; actives 0.12% (n = 410,000); TRPML1-expressing cells, Ca2+ dye fluorescence, FDSS; host cell line not named in the record; reference of the full effect not given here; in the data active = activation above about 50%; inconclusive = about 30% to 50%; inactive = below about 30%; note: 0% is about no effect; the text of the record puts the active cut at 80%
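TRPML1-DL cells, Tet-induced overnight (~16 h, 37 degrees C), loaded 45-90 min at room temperature with Ca8 no-wash calcium dye plus quencher. FDSS fluorescence: 10 s baseline, compound pin-transfer, 110 s agonist read, then EC80 54-4 (4uM final) and 110 s antagonist read.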
* marks the source's active call; other numbers are inactive results; [ ] = another dose, or the depositor's remark.

`CCOc1cc(NC(=S)NCC2CCCO2)c(OCC)cc1NC(=O)c1cccc(C)c1` (stereo not given) gave D2 potentiator 6, PINK1 expr mod 4.3%, D2 agonist -4.3, TRPML1 blocker -1, Six1-Eya2 inh -11 and TRPML1 agonist -0.3.
Cc1ccc(C)c(NS(=O)(=O)c2ccc3c4c(cccc24)C(=O)N3)c1 was read as PINK1 expr mod 1.5%, TRPML1 blocker 56 and TRPML1 agonist 2.3.
Screening COc1cc2c(cc1OC)C(SC)=NC(C)(C)C2 returned D2 potentiator -13, D2 agonist -4.1, TRPML1 blocker 5, Six1-Eya2 inh 3 and TRPML1 agonist 0.7.
`CCc1ccc(-c2nn(-c3ccccc3)cc2C2SCC(=O)N2Cc2ccco2)cc1` (stereo not given) gave D2 potentiator -16, PINK1 expr mod -2.0%, D2 agonist -2.4, TRPML1 blocker -5, Six1-Eya2 inh -2 and TRPML1 agonist 4.8.
For COCCCNC(=O)c1sc2ncccc2c1-n1cccc1 the results were PINK1 expr mod 1.1%, TRPML1 blocker 28 and TRPML1 agonist 0.8.
C[n+]1ccc(/C=C/c2cccs2)cc1 was read as D2 potentiator -10, PINK1 expr mod 1.4%, D2 agonist -5.7 and Six1-Eya2 inh 0.
CC(=O)Nc1ccc(S(=O)(=O)N2CCN(C(=O)N3CCCCCC3)CC2)cc1 was read as D2 potentiator -6, PINK1 expr mod -0.7%, D2 agonist -2.4, TRPML1 blocker 15, Six1-Eya2 inh -3 and TRPML1 agonist 0.4.
For CC(=O)Nc1ccc(CN2CCN(Cc3ccc(C)cc3)C(CCO)C2)cc1 (stereo not given) the results were D2 potentiator -19, PINK1 expr mod 2.7%, D2 agonist -1.6, TRPML1 blocker 1, Six1-Eya2 inh -1 and TRPML1 agonist 0.3.
`COCC(C)NC(=O)C1CC(=O)N(c2ccc(C)cc2)C1` (stereo not given) gave D2 potentiator 0, PINK1 expr mod 5.1%[38.3 µM], D2 agonist -5.5, TRPML1 blocker 53, Six1-Eya2 inh -9 and TRPML1 agonist -0.6.
Screening C=CCC1(CC=C)CCCN1C(=O)c1cc(COc2ccc(F)c(F)c2)on1 returned D2 potentiator -14, PINK1 expr mod 6.3%, D2 agonist -3.1, TRPML1 blocker 81, Six1-Eya2 inh 38 and TRPML1 agonist 1.5.
Cc1cc(C(=O)CSc2nnc(-c3ccc(Cl)cc3)n2C)c(C)n1CC1CCCO1 (stereo not given) was read as D2 potentiator -13, PINK1 expr mod inconclusive, D2 agonist -1.5, TRPML1 blocker 9, Six1-Eya2 inh -3 and TRPML1 agonist 0.8.
O=C1CSC(c2cccnc2)N1Cc1ccc(Cl)c(Cl)c1 (stereo not given) was read as D2 potentiator -23, PINK1 expr mod 0.7%, D2 agonist -3.6, TRPML1 blocker -11, Six1-Eya2 inh 7 and TRPML1 agonist -1.1.
For CCOC(=O)C1=C(CC)Nc2ccccc2N=C1NC(=O)c1cccc(S(=O)(=O)N2CCOCC2)c1 the results were D2 potentiator 1, PINK1 expr mod 1.9%, D2 agonist 0.1, TRPML1 blocker -1, Six1-Eya2 inh 0 and TRPML1 agonist 1.8.
For Cc1cccc(C(=O)NC(C(=O)Nc2ccccc2N2CCOCC2)C(C)C)c1 (stereo not given) the results were D2 potentiator -5, PINK1 expr mod 1.0%, D2 agonist -0.6, TRPML1 blocker -5, Six1-Eya2 inh 8 and TRPML1 agonist 0.4.
COc1ccccc1NC(=O)CSc1n[nH]c(Cc2ccccc2)n1 was read as D2 potentiator -18, PINK1 expr mod 9.5%, D2 agonist -19, TRPML1 blocker 6, Six1-Eya2 inh 4 and TRPML1 agonist -0.8.
`Cc1nn(-c2ccc(Cl)cc2Cl)c(C)c1C(=O)O` gave D2 potentiator -4, PINK1 expr mod -1.3%, D2 agonist -2.9, TRPML1 blocker 30, Six1-Eya2 inh 5 and TRPML1 agonist -0.3.
O=C(CCn1c(=O)sc2ccccc21)NCCN1CCOCC1 was read as D2 potentiator -5, PINK1 expr mod -0.6%, D2 agonist -3.4, TRPML1 blocker -9, Six1-Eya2 inh 4 and TRPML1 agonist -0.2.
Screening CCNS(=O)(=O)c1ccc(CCC(=O)NCc2ccc3c(c2)OCO3)cc1 returned D2 potentiator -1, PINK1 expr mod 0.1%, D2 agonist 1.6, TRPML1 blocker 5, Six1-Eya2 inh 2 and TRPML1 agonist 0.6.
`Cc1ccc(C)c(C2=NNC(=O)CC2)c1` gave D2 potentiator -5, PINK1 expr mod 0.7%, D2 agonist -4.3, TRPML1 blocker -14, Six1-Eya2 inh -5 and TRPML1 agonist -0.5.
Screening O=C(O)C1C2C=CC(C2)C1C(=O)NCCCN1CCCC1=O (stereo not given) returned D2 potentiator -30, PINK1 expr mod 0.2%, D2 agonist -0.4, TRPML1 blocker -9, Six1-Eya2 inh -12 and TRPML1 agonist 0.9.
NC(Cc1ccc(C(F)(F)F)cc1)c1csc(Nc2ncccn2)n1 (stereo not given) was read as D2 potentiator -15, PINK1 expr mod 1.0%, D2 agonist -1.5, TRPML1 blocker 1, Six1-Eya2 inh inconclusive and TRPML1 agonist 0.8.
Screening O=C(NC1CCCc2ccccc21)c1cn2ccccc2n1 (stereo not given) returned D2 potentiator -10, PINK1 expr mod -2.0%, D2 agonist -2.0, TRPML1 blocker -9, Six1-Eya2 inh -1 and TRPML1 agonist 0.7.
For O=C(NCc1ccc2c(c1)OCO2)c1nc(Cn2cc([N+](=O)[O-])cn2)no1 the results were D2 potentiator -3, PINK1 expr mod -0.1%, D2 agonist -3.7, TRPML1 blocker 0, Six1-Eya2 inh 0 and TRPML1 agonist 0.7.
For COc1ccc(CNc2nc3nc(C)c(Cl)c(C)n3n2)cc1 the results were D2 potentiator -4, PINK1 expr mod -1.5%, D2 agonist -0.2, TRPML1 blocker -3, Six1-Eya2 inh -9 and TRPML1 agonist 2.3.
COc1ccc(C2=C(Nc3ccc(Br)c(C)c3)c3ccccc3C2=O)cc1 was read as PINK1 expr mod 13%, TRPML1 blocker 6 and TRPML1 agonist 0.7.
For CSc1cc(-c2ccco2)oc1C(=O)c1ccco1 the results were D2 potentiator -4, PINK1 expr mod -0.2%, D2 agonist 1.7, TRPML1 blocker -6, Six1-Eya2 inh -25 and TRPML1 agonist 0.2.
For COc1ccc(/C=N/N2CCOCC2)cc1Cn1nc(C)c([N+](=O)[O-])c1C the results were D2 potentiator -8, PINK1 expr mod 1.0%, D2 agonist -3.1, TRPML1 blocker 3, Six1-Eya2 inh -11 and TRPML1 agonist 0.8.
For COc1cc(OC)c(OC)cc1CNCc1ccc2c(c1)OCO2 the results were D2 potentiator -40, PINK1 expr mod -0.3%, D2 agonist -2.2, TRPML1 blocker 3, Six1-Eya2 inh 0 and TRPML1 agonist 0.2.
Screening COc1ccc(/C=C2\CCC/C(=C\c3ccc(OC)c(OC)c3OC)C2=O)c(OC)c1OC returned D2 potentiator 3, PINK1 expr mod -0.5%, D2 agonist 5.0, TRPML1 blocker -18, Six1-Eya2 inh -8 and TRPML1 agonist 1.5.
`COc1ccccc1/C=C/C=N/NC(=O)c1cnccn1` gave D2 potentiator -10, PINK1 expr mod 0.8%, D2 agonist -5.7, TRPML1 blocker 13, Six1-Eya2 inh 11 and TRPML1 agonist -0.4.
COc1ccc(Br)cc1C1NC(=O)NC(C)=C1C(=O)N(C)C (stereo not given) was read as D2 potentiator -7, D2 agonist -2.7, TRPML1 blocker 0, Six1-Eya2 inh 2 and TRPML1 agonist 0.0.
CC(C)(C)OC(=O)N1CCC(Cc2cc(-c3cccnc3)no2)(C(=O)O)CC1 was read as D2 potentiator -8, PINK1 expr mod 1.7%, D2 agonist -3.6, TRPML1 blocker -3, Six1-Eya2 inh 2 and TRPML1 agonist -0.2.
COC(=O)C1=C(c2ccccc2)c2ccccc2S(=O)(=O)N1CC(=O)Nc1ccccc1C(F)(F)F was read as PINK1 expr mod -0.3%, TRPML1 blocker -12 and TRPML1 agonist 1.1.
`COc1ccc(CNC(=O)CCc2c(C)c3cc4c(C)c(C)oc4cc3oc2=O)cc1` gave PINK1 expr mod -1.3%, TRPML1 blocker 1 and TRPML1 agonist 1.9.
`COC(=O)c1ccccc1NC(=O)c1noc2c1CC(C(C)(C)C)CC2` (stereo not given) gave D2 potentiator -11, PINK1 expr mod inconclusive, D2 agonist 2.8, TRPML1 blocker 15, Six1-Eya2 inh 3 and TRPML1 agonist 0.2.
For CCn1cc(CNC(=O)c2cc(-c3ccccc3OC)nc3ccccc23)c(C)n1 the results were D2 potentiator -31, PINK1 expr mod -1.1%, D2 agonist -4.8, TRPML1 blocker -21, Six1-Eya2 inh 24 and TRPML1 agonist 2.4.
CCOC(=O)N1CCN(Cc2ccccn2)CC1 was read as D2 potentiator -3, PINK1 expr mod 3.2%, D2 agonist -0.8, TRPML1 blocker 11, Six1-Eya2 inh 9 and TRPML1 agonist -1.0.
For O=C(O)c1cc([N+](=O)[O-])ccc1NCCCc1ccccc1 the results were D2 potentiator -14, PINK1 expr mod 1.8%, D2 agonist -9.8, TRPML1 blocker -3, Six1-Eya2 inh 5 and TRPML1 agonist 1.5.
`COc1cc(S(=O)(=O)N2CCCCC2)ccc1NC(=O)c1ccccc1Cl` gave D2 potentiator -3, PINK1 expr mod 11%[38.3 µM], D2 agonist 1.1, TRPML1 blocker 11, Six1-Eya2 inh -7 and TRPML1 agonist 1.8.
`CC(Sc1nnnn1-c1ccccc1)C(=O)NC1CCCC1` (stereo not given) gave D2 potentiator -6, PINK1 expr mod 2.7%, D2 agonist -3.5, TRPML1 blocker 4, Six1-Eya2 inh 1 and TRPML1 agonist 0.3.
`C=C(C)COc1ccc(-c2[nH]ncc2Oc2ccccc2OCC)c(O)c1` gave D2 potentiator 4, PINK1 expr mod -0.5%, D2 agonist 2.9, TRPML1 blocker -5, Six1-Eya2 inh 3 and TRPML1 agonist 0.8.

3 structures out of the list, arranged by SMILES length, smallest number first.
CCOC(=O)N1CCN(Cc2ccccn2)CC1 was read as D2 potentiator -3, PINK1 expr mod 3.2%, D2 agonist -0.8, TRPML1 blocker 11, Six1-Eya2 inh 9 and TRPML1 agonist -1.0.
For O=C(O)c1cc([N+](=O)[O-])ccc1NCCCc1ccccc1 the results were D2 potentiator -14, PINK1 expr mod 1.8%, D2 agonist -9.8, TRPML1 blocker -3, Six1-Eya2 inh 5 and TRPML1 agonist 1.5.
CC(C)(C)OC(=O)N1CCC(Cc2cc(-c3cccnc3)no2)(C(=O)O)CC1 was read as D2 potentiator -8, PINK1 expr mod 1.7%, D2 agonist -3.6, TRPML1 blocker -3, Six1-Eya2 inh 2 and TRPML1 agonist -0.2.
